# Screening data (PubChem BioAssay)
# Beta apoptosis = blocks beta cell apoptosis. AID 435005. hit rate 0.8% among 300,000. INS-1E cytokine-induced death, ATP luminescence, 48 h; percent of positive-control rescue, neutral wells zero. protection from apoptosis, % (test concentration not listed);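 active = all replicates at 75% or more, or half of them and the mean; inconclusive = half reach 75% but not the mean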;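 also: 0% = cytokine-treated negative control wells and 100% = positive control rescue; higher means more ATP so stronger rescue from cytokine killing; wells of about 40 µL received 100 nL stock; the first replicate is given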
# A1 inh = inhibitors of the anti-apoptotic protein A1, read as caspase activation; MEF A1-2A-BIM cells, Caspase-Glo 3/7 luminescence, 3 h; percent of clofoctol response, vehicle zero; caspase activation, % (test concentration not listed); hit rate 0.066% among 330,000; AID 2462;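 active = over half of replicate activation scores above 10%, or exactly half above 10 with the replicate mean above 10; inconclusive = replicate mean below 10 yet half the replicates above 10; inactive = over half of replicates below 10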;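 also: wells of about 30 µL received 50 nL stock; many hits fall short of the cut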
# rRNA inh HTS = selective bacterial rRNA inhibition in E. coli; E. coli WT GFP vs humanized-ribosome RFP mutants, fluorescence, 24 h; active compounds read low; DMSO median 0, no signal -100; GFP signal change (wild-type ribosome), % (no concentration beside the values); hit rate 1.6% among 350,000;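 active = significant combined selectivity score with lowered wild-type GFP, culture density cut under 30%, mutant RFP and density less affected; inactive = any of these conditions unmet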; also: one replicate is shown; some compounds called inactive have numbers as strong as hits
# FGF22 binding = FGF22 (human) thermal shift binding; recombinant FGF22 thermal shift, SYPRO orange fluorescence; percent of sucrose octasulfate shift, DMSO zero; calls only at 9.99 µM; hit rate 1.5% among 340,000; AID 651658;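 active = melting point raised past a set limit in the mean and every replicate; inconclusive = no clear call; three in four hits are not shown here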
# Target sequence (Q9HCT0 whole entry, looked up): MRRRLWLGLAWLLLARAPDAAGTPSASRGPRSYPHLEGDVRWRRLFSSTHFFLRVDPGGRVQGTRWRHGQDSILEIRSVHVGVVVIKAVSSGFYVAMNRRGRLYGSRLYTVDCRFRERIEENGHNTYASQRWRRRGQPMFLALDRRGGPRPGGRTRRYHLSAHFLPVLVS
# T cruzi inh = blocks replication of Trypanosoma cruzi. T. cruzi beta-gal in NIH3T3, luminescence, 90 h. AID 1885. hit rate 1.4% among 300,000. inhibition, % (no concentration beside the values);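 active = mean inhibition across valid replicates above about 55%, limit read from the data; inconclusive = mean below that limit but half or more replicates reach it; inactive = mean below it, under half of replicates reach it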;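 also: signal also drops with host cell toxicity which is not excluded here; 0% = plate median of DMSO wells and 100% = zero luminescence signal; higher percent means less beta-gal luminescence so fewer parasites; stock transfer was 50 nL into about 50 µL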
# UCH37 inh = blocks the human deubiquitinase UCH37; Q9Y5K5; purified proteasome/UCH37, Ub-AMC cleavage fluorescence; hit rate 0.33% among 330,000; inhibition, % (no concentration beside the values);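 active = mean of two replicates above 20%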;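 also: 0% = compound-free wells with enzyme and 100% = wells lacking proteasome; stock transfer was 100 nL into about 20 µL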
# Target sequence (Q9Y5K5 whole entry, looked up): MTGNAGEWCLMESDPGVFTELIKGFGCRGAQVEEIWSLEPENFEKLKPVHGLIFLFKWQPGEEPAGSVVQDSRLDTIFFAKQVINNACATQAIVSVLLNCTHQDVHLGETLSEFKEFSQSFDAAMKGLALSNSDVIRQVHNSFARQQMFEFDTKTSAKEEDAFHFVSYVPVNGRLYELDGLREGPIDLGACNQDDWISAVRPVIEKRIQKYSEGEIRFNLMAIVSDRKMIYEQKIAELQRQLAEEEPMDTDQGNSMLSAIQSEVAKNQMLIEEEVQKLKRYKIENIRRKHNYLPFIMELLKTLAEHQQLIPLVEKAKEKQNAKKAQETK
#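 Material: Human UCH37 enzyme supplied as purified proteasome complex | Schedule: 30 min preincubation with enzyme, 25 min cleavage at room temperature | Detection: AMC fluorescence 355/460 nm | Measure: % inhibition of Ub-AMC cleavage fluorescence | Controls: Wells without proteasome as full block, compound-free enzyme plus substrate as uninhibited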
# E coli growth = inhibitors of Escherichia coli growth | OD600, 23 h; active compounds read low | OD600 absorbance (no concentration beside the values) | hit rate 0.21% among 330,000 | AID 1053175;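 active = OD600 absorbance below the run mean of sample wells minus 3.6 SD, in any replicate, cut at about 0.56 in these data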;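 also: stock transfer was 300 nL into about 60 µL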
# AF4-AF9 inh = blocks AF4 peptide binding to human AF9. P42568. AlphaScreen, biotin-AF4 peptide binding to FLAG-AF9. inhibition, % at 10 µM. hit rate 0.47% among 350,000;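 active = every replicate reaching a set inhibition limit, whatever the replicate mean, cut at about 25% in these data; inconclusive = mean inhibition reaches that limit but some replicates miss it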;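 also: 0% = plate neutral control median and 100% = total signal loss; the record names both 10 and 1 µM as test concentration; the first replicate is given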
# Target sequence (P42568 whole entry, looked up): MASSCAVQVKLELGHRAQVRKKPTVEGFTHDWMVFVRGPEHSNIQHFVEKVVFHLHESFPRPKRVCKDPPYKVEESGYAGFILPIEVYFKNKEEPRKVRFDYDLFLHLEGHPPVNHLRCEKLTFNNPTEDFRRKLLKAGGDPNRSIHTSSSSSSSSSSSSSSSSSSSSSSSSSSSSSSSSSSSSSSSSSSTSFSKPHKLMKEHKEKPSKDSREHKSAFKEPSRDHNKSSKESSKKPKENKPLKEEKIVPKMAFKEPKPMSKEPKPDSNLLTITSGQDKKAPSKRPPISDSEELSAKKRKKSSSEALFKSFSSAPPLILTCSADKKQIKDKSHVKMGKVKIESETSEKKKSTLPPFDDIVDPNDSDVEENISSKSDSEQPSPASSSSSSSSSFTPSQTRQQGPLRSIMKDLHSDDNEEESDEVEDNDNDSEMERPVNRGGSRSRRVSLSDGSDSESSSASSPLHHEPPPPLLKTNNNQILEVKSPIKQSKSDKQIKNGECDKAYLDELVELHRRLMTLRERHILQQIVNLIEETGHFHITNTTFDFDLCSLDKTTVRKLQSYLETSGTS
# rRNA inh HTS OD600 = recorded beside rRNA inh HTS, whose call it bears; OD600 change, %; measured here: OD600 growth;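 optical density of the mix in the first replicate; 0 = DMSO median and -100 = no signal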
# rRNA inh HTS RFP = recorded beside rRNA inh HTS, whose call it bears; RFP signal change, %; measured here: RFP humanized mutant strains;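 first replicate; 0 = DMSO median and -100 = no signal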
# Numbers without * were called inactive; i = inactive; ? = inconclusive; · = no result given; & = joins results of further samples. A portion of the library; the hit share may differ from the screen's.
SMILES,Beta apoptosis,A1 inh,rRNA inh HTS,rRNA inh HTS OD600,rRNA inh HTS RFP,FGF22 binding,T cruzi inh,UCH37 inh,E coli growth,AF4-AF9 inh
C=CCN1C(=O)/C(=C/c2ccc(Br)s2)C(=O)NC1=S,·,-0.3,14,14,15,i,-10,-0.6,0.7,-0.1
COc1cc(CN2CCN(C(=O)COc3ccccc3)CC2)cc(OC)c1OC,-2,-0.1,·,·,·,·,6,-0.2,0.77,·
CC(=O)N1CN(C(C)=O)CN(C(C)=O)C1,0,0.5,21,1,13,i,-14,2.4,0.66,1.7
COc1ccc(CCn2c(O)c(C=NCCCO)c(=O)[nH]c2=O)cc1OC,1,0.4,·,·,·,·,-41,0.9,0.69,·
CCCC1=C(C(=O)OCC)C2(C(=O)Nc3ccccc32)C(C#N)=C(N)O1 (stereo unspecified),-5,1.0,·,·,·,·,-4,2.4,0.7,·
CN1C(=O)C(=CN2CCN(C(=O)c3ccco3)CC2)C(=O)N(C)C1=S,-11,-0.6,·,·,·,·,6,2.5,·,·
CC(NCc1cccc(Cl)c1Cl)C(O)c1ccccc1 (stereo unspecified),0,0.8,·,·,·,·,7,0.8,0.69,·
O=c1[nH]c(=O)n(-c2ccc(Br)cc2)c(O)c1C=NC(CO)(CO)CO,-1,0.2,15,2,-0.1,i,7,0.0,0.7,-7.5
O=C(c1cc(S(=O)(=O)N2CCC3(CC2)OCCO3)ccc1F)N1CCC2(CC1)OCCO2,-5,0.5,6,9,-2.7,i,-7,4.7,0.71,-2.0
Cc1cc(/C=C2\C(=O)NC(=O)N(Cc3ccco3)C2=O)c(C)n1-c1ccc(C(=O)O)cc1,-8,-0.1,11,2,-1.7,i,8,3.5,0.7,7.8
CC(=O)Nc1ccccc1C(=O)OCc1cccc(F)c1,-2,-0.6,-8,8,0.0,i,-1,3.1,0.69,0.1
CCC(=Nc1ccc2c(c1)CCC2)c1c(O)n(-c2ccc(OC)cc2)c(=O)[nH]c1=O,·,-0.2,2,1,4.4,i,·,-0.1,0.69,-2.0
C[C@]12CC[C@H](OC(=O)CCC(=O)O)CC1=CCC1C2CC[C@@]2(C)C1CC[C@@H]2OC(=O)CCC(=O)O (stereo partly specified),-1,-0.3,-11,-7,-2.2,i,·,1.6,0.68,-6.0
O=C(c1ccccc1F)c1cn(Cc2ccc(F)cc2)c2ccccc12,-6,0.5,·,·,·,·,-7,-0.4,0.67,·
CCOC(=O)C1=C(C)OC(N)=C(C(=O)OCC)[C@@]12C(=O)N(CC(N)=O)c1ccccc12,-1,-0.5,·,·,·,·,2,3.4,0.71,-11
O=C(c1ccc(Cl)cc1)C1CCCN(Cc2ccc3nonc3c2)C1 (stereo unspecified),2,-0.3,-28*,-19*,1.8*,i,7,·,·,6.7
O=C1C2CCCN2C(c2ccncc2)N1c1ccc(Cl)c(Cl)c1 (stereo unspecified),-7,-0.7,·,·,·,·,30,0.1,0.67,·
O=C(C[N+]12CCC(CC1)C(O)C2)c1ccc(Br)cc1 (stereo unspecified),-1,0.7,7,10,0.1,i,-8,4.2,0.67,-2.0
COc1ccc(-c2nn(CCC#N)cc2C(=O)Nc2cccc([N+](=O)[O-])c2)cc1OC,4,-0.2,-8,5,-5.1,i,-4,4.9,0.68,6.4
CCC(CC)NC1CCCCC1OC (stereo unspecified),2,0.3,·,·,·,·,0,1.5,0.69,·
CN1CC(C(=O)c2cccc(C(F)(F)F)c2)C(c2ccc(Cl)cc2)C1 (stereo unspecified),-5,-0.8,-17,-37,6.6,i,28,2.2,0.65,8.6
COc1ccc(Cn2c(O)c(C=Nc3c(C)n(C)n(-c4ccccc4)c3=O)c(=O)[nH]c2=O)cc1,3,0.1,12,8,-0.7,i,-3,1.3,0.69,-0.4
Cc1cc(OC(=O)N(C)C)nc(-c2ccc(C)c(Cl)c2)n1,-7,1.4,·,·,·,i,2,2.2,0.71,-3.3
C/C(=N\Nc1ccccc1)c1c(O)n(Cc2ccccc2)c(=O)[nH]c1=O,3,1.3,·,·,·,·,-2,2.6,0.71,·
CCOC(=O)C1=C(N)Oc2cc(C)oc(=O)c2C12C(=O)N1c3c(cccc32)C(C)=CC1(C)C (stereo unspecified),-4,0.2,·,·,·,·,23,2.9,0.67,·
CCOC(=O)c1c(C)n(CCN2CCN(C)CC2)c2ccc(OC)cc12,-7,2.1,·,·,·,·,5,1.6,0.67,·
C#C[C@]1(O)CCC2C3C(=O)C=C4C(Cl)=CCC[C@]4(C)C3CC[C@@]21C (stereo partly specified),·,·,-22,-38,-1.5,i,·,-0.2,0.68,-5.1
COc1ccc(C(=O)OC2C[C@H]3CC[C@H](C2)N3C)cc1OC (stereo partly specified),-3,1.6,-5,10,0.4,i,·,4.7,·,-6.8
OC(CNC1CCCCC1)C(F)(F)F (stereo unspecified),-4,0.3,13,0,6.9,i,-8,-3.2,0.64,-0.7
O=C(CN1CCCC1=O)Nc1ccccc1,-6,1.1,·,·,·,·,-11,0.5,0.79,·
COc1cc(CC(C)N)c(OC)cc1I (stereo unspecified),·,1.2,10&2,9&2,3.2&1.0,i,-21,-0.2,0.64&0.68,-1.9
O=C(NCC(c1cccnc1)N1CCN(c2ccccc2)CC1)Oc1ccccc1 (stereo unspecified),-3,0.1,·,·,·,·,64*,1.4,0.67,·
CC12CCCCC1=NC(c1ccc(Br)cc1)N2O (stereo unspecified),2,0.2,·,·,·,·,-13,0.0,0.69,·
Fc1ccccc1CCNCc1ccccc1,-8,0.2,·,·,·,·,-26,4.6,0.68,·
Fc1cccc(F)c1CN1CCN(c2ccc(Cl)cc2)CC1,·,-0.5,-2,1,0.7,i,2,3.6,0.65,7.0
COc1ccccc1N1CCN(Cc2ccccc2F)CC1,1,0.4,·,·,·,·,-10,-1.0,0.67,·
Cc1nc2ccccc2c(=O)n1-c1ccc(F)cc1,·,1.1,·,·,·,·,-21,3.7,0.66,·
Cc1cccc(N2C(=O)NC(=O)/C(=C/c3cc4c(cc3[N+](=O)[O-])OCO4)C2=O)c1,-3,-0.9,2,3,12,i,-21,-1.0,0.67,-7.1
Clc1ccc(CNCCc2ccc3c(c2)OCO3)cc1,-12,-0.4,-2,-5,0.0,i,41,0.8,0.66,-1.8
S=C1CN=C(c2ccccc2)c2cc(Cl)ccc2N1,2,1.0,·,·,·,·,6,4.3,0.69,·

# Some of the entries so far, field by field:
> COc1cc(CC(C)N)c(OC)cc1I (stereo unspecified)
  Beta apoptosis: ·; A1 inh: 1.2; rRNA inh HTS: 10&2; rRNA inh HTS OD600: 9&2; rRNA inh HTS RFP: 3.2&1.0; FGF22 binding: i; T cruzi inh: -21; UCH37 inh: -0.2; E coli growth: 0.64&0.68; AF4-AF9 inh: -1.9

> O=C(NCC(c1cccnc1)N1CCN(c2ccccc2)CC1)Oc1ccccc1 (stereo unspecified)
  Beta apoptosis: -3; A1 inh: 0.1; rRNA inh HTS: ·; rRNA inh HTS OD600: ·; rRNA inh HTS RFP: ·; FGF22 binding: ·; T cruzi inh: 64*; UCH37 inh: 1.4; E coli growth: 0.67; AF4-AF9 inh: ·

# (listing goes on)
SMILES,Beta apoptosis,A1 inh,rRNA inh HTS,rRNA inh HTS OD600,rRNA inh HTS RFP,FGF22 binding,T cruzi inh,UCH37 inh,E coli growth,AF4-AF9 inh
CC(Cc1ccccc1)NC(=O)CN1CCCC1=O (stereo unspecified),-2,0.2,6,0,0.1,i,-19,2.9,0.69,-2.1
NC(=O)c1ccc(N=Cc2c(O)n(Cc3ccco3)c(=O)[nH]c2=O)cc1,-2,0.6,14,5,-5.7,i,1,·,·,0.5
CC(C)CCn1c(N)c(C(=O)NCc2cccs2)c2nc3ccccc3nc21,-13,0.8,-22*,-6.0*,8.0*,i,?,-174,0.75,-0.1
O=c1[nH]c(=S)[nH]c(O)c1/C=C1/C=c2ccccc2=N1,-1,0.9,7,13,3.3,i,5,3.4,0.65,-5.1
COc1ccc(CC(C)NCCc2ccc(OC)c(OC)c2)cc1 (stereo unspecified),-7,-0.2,3,-8,-3.6,i,30,2.3,0.64,-4.8
COc1ccccc1CN1CCN(C(=O)COc2ccc3ccccc3c2)CC1,-2,-0.3,-15,-35,-0.8,i,23,·,·,1.8
O=C(CNC(=O)c1ccccc1Cl)Nc1ccc(Br)cc1C(=O)c1ccccc1,·,0.5,-29,-15,17,i,12,1.7,0.72,-8.1
CCN(CC)S(=O)(=O)c1ccc(NN=C(C#N)C#N)cc1,4,-0.3,·,·,·,i,45,16,0.67,6.3
CCN(CC)CCCNC(=O)c1c(O)c2ccccc2n(Cc2ccccc2)c1=O,2,0.5,·,·,·,·,15,-2.1,0.68,·
COC(=O)C1=C(c2ccccc2OCc2ccccc2)C[C@@H]2CC[C@H]1N2C(=O)NCCOc1ccc(OC)cc1,6,1.0,8,0,13,i,·,3.8,·,4.0
CCC1(OC(=O)c2ccccc2)CC(C)N(C)CC1C (stereo unspecified),·,-0.5,28,19,0.3,i,1,2.6,0.68,-3.0
O=C1NC(=S)N(c2ccc(F)cc2)C(=O)/C1=C/c1ccccc1O,-22,1.6,11,2,15,i,5,-0.8,0.68,-1.9
C[C@H]1CC[C@@H]2N(C1)C[C@H]1[C@@H]3C[C@H]4[C@@H](CC(=O)[C@H]5C[C@@H](O)CC[C@@]54C)[C@@H]3CC[C@H]1[C@]2(C)O,1,0.8,9,13,0.1,i,10,0.9,0.67,-2.4
C[N+](C)(C)CC#CCOC(=O)Nc1cccc(Cl)c1,-3,-0.7,5,9,-0.2,i,-28,2.9,0.67,-2.5
CC(Cc1ccccc1)NC=O (stereo unspecified),-5,0.1,11,11,12,i,-6,1.1,0.72,-0.1
Clc1ccc(OCC#CCN2CCOCC2)cc1,-3,0.7,4,2,-1.0,i,13,-1.4,0.67,2.2
NCC(CC(=O)O)c1ccc(Cl)cc1 (stereo unspecified),-6,1.0,·,·,·,·,-11,0.1,0.68,·
CC(=O)N1CN2CN(C(C)=O)CC(C(=O)c3ccc(Br)cc3)(C2)C1,1,-0.5,·,·,·,·,6,3.4,0.66,·
O=c1[nH]c(O)c(N=Nc2cccc(S(=O)(=O)N3CCOCC3)c2)c(=O)[nH]1,-1,-0.1,10,4,-0.8,i,-9,10,0.75,0.7
Cn1cc(C(=O)OCC(=O)NC2(C#N)CCCC2)c2ccccc21,2,0.6,-1,-1,3.0,i,·,3.2,0.68,-0.8

# Some of the entries above, reformatted.
# The line under a structure holds: Beta apoptosis | A1 inh | rRNA inh HTS | rRNA inh HTS OD600 | rRNA inh HTS RFP | FGF22 binding | T cruzi inh | UCH37 inh | E coli growth | AF4-AF9 inh
CC(=O)N1CN2CN(C(C)=O)CC(C(=O)c3ccc(Br)cc3)(C2)C1
 : 1 | -0.5 | · | · | · | · | 6 | 3.4 | 0.66 | ·
O=c1[nH]c(O)c(N=Nc2cccc(S(=O)(=O)N3CCOCC3)c2)c(=O)[nH]1
 : -1 | -0.1 | 10 | 4 | -0.8 | i | -9 | 10 | 0.75 | 0.7
Cn1cc(C(=O)OCC(=O)NC2(C#N)CCCC2)c2ccccc21
 : 2 | 0.6 | -1 | -1 | 3.0 | i | · | 3.2 | 0.68 | -0.8
